D2 potentiator: potentiates the human D2 dopamine receptor allosterically; DiscoveRx D2 beta-arrestin cells, luminescence, 90 min; 100% = 57 uM dopamine signal; AID 624464; hit rate 0.23% among 360,000; potentiation, % (no concentration beside the values); active = potentiation of 50% or more; inconclusive = 30% to 50%; inactive = 30% or less;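 also: compound concentration not given in the record; tested on top of an EC20 dose of dopamine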
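PathHunter beta-arrestin assay in DiscoveRx D2 cells. Compounds were added with an EC20 of dopamine (50 nM final) for 90 min at 37 deg C. Luminescence was read 1 h after detection reagent, with 57 uM dopamine as the EC100 control.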
gsp agonist: agonists of gsp mutant (McCune-Albright syndrome). gsp mutant cells, cAMP HTRF, 30 min; control for the full effect not named in the record. Potency, µM (doses to about 76.9 µM), for the others: at the top dose activation (cAMP increase), usual class: activators. hit rate 0.13% among 340,000; active = well fitted activation curve with a large enough effect; inconclusive = small, poorly fitted or top-dose-only effect, or another doubt; inactive = no such curve, though single readings can be large or run the other way; cell line not stated here;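 also: phosphodiesterase inhibitor Ro 20-1724 added with compounds to block cAMP breakdown; potency is read from the fitted curve at half-maximal effect; nearly all actives have a fitted effect of over 60% in size; about a fifth of the inactives were tested at one dose only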
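Cells in DMEM/10% FBS with G418 were pretreated with compounds in DMSO plus […] (300 uM stock) for 30 min at 37C. cAMP was measured by HTRF (cAMP-d2 plus anti-cAMP antibody-K) after 30 min at room temperature.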
gsp antagonist: gsp mutant antagonism; hit rate 0.4% among 340,000; gsp-mutant cells, cAMP HTRF, 30 min; control for the full effect not named in the record; AID 624288; Potency, µM (highest dose often 76.9 µM), inactives show at the top dose activity change, negative = inhibition, actives largely listed as inhibitors; active = falling curve of any shape with a large fitted effect; inconclusive = falling curve, mostly with a smaller effect; inactive = flat or rising curve; cell line not stated here;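 also: intracellular cAMP measured with PDE inhibitor Ro 20-1724 present during compound exposure; potency is read from the fitted curve at half-maximal effect; % is scaled to controls: 0 for no effect and ±100 for the full control effect; nearly all actives have a fitted effect of over 65% in size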
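Cells, 2000/well, grown 16–24 h in DMEM 10% FBS with 0.5 mg/ml G418, then compounds plus […] (300 uM addition stock), 30 min at 37C. cAMP read by HTRF (cAMP-d2 and anti-cAMP antibody-K in lysis buffer) after 30 min RT.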
TRPV1 PAM: human TRPV1 potentiation; Q8NER1; TRPV1-expressing cells, Fluo-8 calcium influx, capsaicin EC20 potentiation; host cell line not named in the record; control for the full effect not named in the record; potentiation, % at 8.33 µM; hit rate 0.02% among 320,000; active means potentiation above 80%; inconclusive means 30% to 80%; inactive means below 30%; also: 0% is about no effect
Target sequence (Q8NER1 whole entry, looked up): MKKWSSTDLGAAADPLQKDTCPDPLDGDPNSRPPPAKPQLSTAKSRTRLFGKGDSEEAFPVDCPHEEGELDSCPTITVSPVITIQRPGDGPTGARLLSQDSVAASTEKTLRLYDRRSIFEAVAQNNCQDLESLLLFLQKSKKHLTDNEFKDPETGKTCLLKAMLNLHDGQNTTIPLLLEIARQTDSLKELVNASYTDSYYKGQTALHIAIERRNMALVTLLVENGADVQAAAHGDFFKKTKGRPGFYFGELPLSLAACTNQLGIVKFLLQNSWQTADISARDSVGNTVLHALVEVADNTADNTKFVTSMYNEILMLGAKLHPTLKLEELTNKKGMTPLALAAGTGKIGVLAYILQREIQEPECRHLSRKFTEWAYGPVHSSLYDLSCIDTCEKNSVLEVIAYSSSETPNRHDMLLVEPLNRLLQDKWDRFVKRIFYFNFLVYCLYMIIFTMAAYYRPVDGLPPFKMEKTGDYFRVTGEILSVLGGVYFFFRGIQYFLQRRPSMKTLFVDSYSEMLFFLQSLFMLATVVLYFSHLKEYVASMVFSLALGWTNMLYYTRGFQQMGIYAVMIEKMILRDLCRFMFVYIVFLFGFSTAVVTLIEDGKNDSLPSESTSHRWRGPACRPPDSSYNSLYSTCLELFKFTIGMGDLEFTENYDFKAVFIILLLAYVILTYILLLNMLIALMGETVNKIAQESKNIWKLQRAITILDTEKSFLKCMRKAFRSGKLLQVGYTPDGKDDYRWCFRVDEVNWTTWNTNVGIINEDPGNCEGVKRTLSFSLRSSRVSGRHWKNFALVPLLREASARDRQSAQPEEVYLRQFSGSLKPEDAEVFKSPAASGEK
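Fluo-8 calcium influx in TRPV1-expressing cells, kinetic read (ex 480/em 520 nm). Compound added and read 3 min for agonist activity, followed by capsaicin at EC20 final and 2 min further read for enhancement.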
Sfp PPTase inh: Sfp phosphopantetheinyl transferase inhibition; AID 1490; Q9F4F7; hit rate 3.5% among 310,000; Biochemical Sfp PPTase activity, qHTS; Potency, µM, inactives show max response, negative = inhibition, actives largely listed as inhibitors; active = well fitted inhibition curve with a large enough effect; inconclusive = small, poorly fitted or top-dose-only effect, or another doubt; inactive = no such curve, though single readings can be large or run the other way;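 also: the enzyme is Sfp with the accession as filed and its product quenches rhodamine fluorescence; potency is read from the fitted curve at half-maximal effect; 0% = enzyme reaction without inhibitor and -100% = no enzyme wells; top concentration of the series not given in the record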
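With Hepes-Na pH 7.6 buffer containing 10 mM MgCl2, Sfp (15 nM) modified BHQ-2-YbbR (12.5 uM) using rhodamine-CoA (5 uM). Two reads 30 minutes apart at 525/598 nm yielded each well's rate.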
Menin MLL FP FL: displaces fluorescein MLL peptide from human menin; AID 1766; Fluorescence polarization, fluorescein-MLL peptide displacement from menin; FP activity change, % at 61.4 µM; 290,000 tested, under 10 active; inconclusive = falling polarisation curve, or a change in total fluorescence; inactive = total fluorescence flat and polarisation flat or rising; no compound was filed as active; the % refers to the polarisation; negative = inhibition;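 also: % of control where 0% means no effect; inhibitors lower the polarisation; unlabelled MLL peptide was the positive control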
ClpP mod: qHTS Assay for Activators of ClpP | hit rate 1.9% among 340,000 | purified B. subtilis ClpP, FRET peptide cleavage, 20 min | Potency, µM (titrated, usually from 57.5 µM), without a hit: at the top dose activity change, negative = active | ATP-dependent Clp protease proteolytic subunit (Bacillus subtilis (strain 168)), P80244 | AID 651965, 2013; active = well fitted falling curve with a large enough effect; inconclusive = small, poorly fitted or top-dose-only effect; inactive = no such curve, though single readings can be large or run the other way; also: potency is read from the fitted curve at half-maximal effect; the source files actives as falling curves though it sought activators and does not explain the sign; nearly all actives have a fitted effect of over 65% in size; many hits overshoot -100%
Target sequence (P80244 whole entry, looked up): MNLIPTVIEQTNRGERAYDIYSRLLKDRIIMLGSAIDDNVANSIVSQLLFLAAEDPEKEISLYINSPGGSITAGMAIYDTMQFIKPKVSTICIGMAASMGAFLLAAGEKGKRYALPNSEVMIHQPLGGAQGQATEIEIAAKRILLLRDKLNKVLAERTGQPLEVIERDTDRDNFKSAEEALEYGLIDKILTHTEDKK
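FRET quenching reversal measured ClpP activation: 10 microg/mL B. subtilis ClpP at pH 8 with the FRET-FV decapeptide, read at 430 nm after 320 nm excitation. The 20-min minus 0-min signal was scaled between DMSO/no-enzyme wells and ADEP (5.8 microM final).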
* hit, by the source's call; ? = inconclusive; nt = no result given; [ ] = another dose, or the depositor's remark.

SMILES	D2 potentiator	gsp agonist	gsp antagonist	TRPV1 PAM	Sfp PPTase inh	Menin MLL FP FL	ClpP mod
CCC(NC(=O)c1ccccc1NC(=O)c1ccco1)C(=O)NNC(=O)c1ccc(OC)cc1 (stereo unspecified)	-14	-20%[15.4 µM]	7%	4	-19%	0.3	nt
CSc1cccc(NC(=O)c2cnn3ccccc23)c1	3	7%[15.4 µM]	-10%	nt	2%	1.4	nt
Cc1c(CCOC(=O)c2ccc(N3CCOCC3)c([N+](=O)[O-])c2)sc[n+]1CC#N	-8	8%[15.4 µM]	-1%	-15	3%	-1.9	nt
CCCCn1c(N)c(Br)c(=O)[nH]c1=O	-12	0%	0%	2	16%	1.6	-0.3%
COc1ccc(Sc2nnc(-c3ccccc3)cc2C#N)cc1	-16	-23%	-2%	-15	7%	-0.6	-3.1%
Cc1ccc(OCCSc2nc3ncnc(N)c3[nH]2)cc1	-13	-2%	1%	-19	5%	5.3	1.1%
COc1ccc(S(=O)(=O)Nc2ccc3c(c2)C(=O)N([C@H](C)CO)C[C@H](C)[C@@H](CN(C)S(=O)(=O)c2cccs2)O3)cc1	-6	nt	-3%	nt	nt	nt	-2.2%
Cc1ccccc1N1CCN(CC(=O)Nc2nccs2)CC1	-11	-9%[15.4 µM]	-8%	-10	14%	-0.1	0.0%
O=C(NCC1CCCO1)c1cccc(-n2cnnn2)c1 (stereo unspecified)	-12	-17%	14%	6	10%	3.0	-0.1%
C/C(=N\NC(=O)COc1ccc([N+](=O)[O-])cc1)C(C)(C)C	2	0%	5%	nt	8%	2.1	-1.4%
COc1ccc2c(c1)CCCC21SC(NC(C)=O)=NN1C(C)=O (stereo unspecified)	-2	-13%[15.4 µM]	0%	0	9%	3.1	nt
CCCOC(=O)CCc1n[nH]c(=O)[nH]c1=O	-5	0%	-8%	2	16%	-0.4	0.4%
Cc1noc(C)c1COC(=O)COc1ccc2c(C)cc(=O)oc2c1	15	11%	-16%	-3	-10%	1.0	-25%
Cc1ccc(N(C(C)C(=O)N2CCOCC2)S(C)(=O)=O)cc1C (stereo unspecified)	-2	-5%	4%	7	14%	0.3	nt
Cn1cc(C(=O)C(=O)N2CCCCC2)c2ccccc21	-4	-1%[15.4 µM]	-3%	nt	nt	nt	nt
CC(C)(CN1CCCC1)NC(=O)C1CCC(=O)N(CCCN2CCOCC2)C1 (stereo unspecified)	-1	0%	5%	10	9%	-6.6	-3.5%
Cc1ccc(C(=O)NCC(=O)OCC(=O)c2cc(C)n(Cc3ccco3)c2C)cc1	-8	1%[15.4 µM]	-1%	-2	10%	6.7	-1.2%
COc1ccc(NC(=O)C2CCCN2S(=O)(=O)c2ccc(C)cc2)cc1 (stereo unspecified)	-8	14%	-11%	2	9%	6.2	-2.2%
O=C(NCC(c1cccs1)N1CCOCC1)C1CCN(S(=O)(=O)c2c(Cl)cccc2Cl)CC1 (stereo unspecified)	17	?	2%	-12	nt	nt	-0.9%
Cc1ccccc1NS(=O)(=O)c1ccc(OCC(=O)NCc2cccnc2)cc1	-6	-4%	16%	-30	21%	0.8	0.4%
CCOC(=O)C1=C(C)N(c2ccccc2)C(=O)NC1c1cccc([N+](=O)[O-])c1 (stereo unspecified)	-12	14%	-26%	-1	2%	4.7	0.5%
COC(=O)c1ccccc1NC(=O)c1nc2nc(C)cc(C(F)F)n2n1	23	4%	0%	-4	11%	-0.5	-2.0%
Cc1cc(C)n(C(=O)c2ccc([N+](=O)[O-])cc2[N+](=O)[O-])n1	?	2%	17%	-3	15%	9.5	0.5%
Cc1ccc(NC(=O)COC(=O)CN2CCCCCC2=O)cc1C	-3	0%	1%	3	nt	nt	-1.3%
O=C(COC(=O)C1(c2ccccc2F)CCCC1)N1CCN(C(=O)c2ccco2)CC1	-5	12%	-3%	-13	2%	-0.9	-0.4%
CCOC(=O)N1CCC(N2C(=O)c3ccccc3C2Nc2ccc(Cl)cn2)CC1 (stereo unspecified)	1	-43%[inhibitor]	-16%	-16	-17%	2.7	-1.2%
CC1(C)Oc2cc3oc(-c4cc(O)cc(O)c4)cc3cc2CC1O (stereo unspecified)	-28	nt	-12%	nt	nt	nt	4.3%
O=C(Nc1ccc(Oc2cccnc2)cc1)C1CCN(Cc2cccc(Cl)c2)CC1	-23	-18%	-4%	-21	12%	3.1	-2.0%
N#CC1=C(N)Oc2n[nH]c(-c3ccc(F)cc3)c2C1c1cccc(OC(=O)N2CCOCC2)c1 (stereo unspecified)	-16	16%	-4%	3	7%	4.9	3.1%
COc1ccccc1CNC(=O)c1ccc(CS(=O)(=O)c2ccccc2OC)o1	-9	19%	-16%	11	8%	0.1	-0.9%
O=C(Cc1c(F)cccc1Cl)N1CCN(S(=O)(=O)c2cccc(F)c2)CC1	-6	-5%	-10%	-3	nt	nt	1.0%
CCOC(=O)c1c(NC(=O)CN2C(=O)NC(C)(c3ccc(OC(F)F)cc3)C2=O)sc(C)c1C (stereo unspecified)	-6	?	-9%	-8	15%	4.7	-3.8%
CCC(C(=O)Nc1cc(Cl)c(OC)cc1OC)c1ccccc1 (stereo unspecified)	-8	0%	-26%	-23	16%	3.4	-2.5%
COc1cccc(C(O)Cc2nc3ccccc3n2C)c1OC (stereo unspecified)	-12	15%[15.4 µM]	nt	8	5%	1.7	nt
CCOC(=O)C(C)n1cnc2c(oc3ccccc32)c1=O (stereo unspecified)	-1	26%	11%	4	24%	0.7	-0.1%
O=C(COc1cc(F)ccc1[N+](=O)[O-])Nc1ccc(N2CCOCC2)cc1	-1	2%[15.4 µM]	-2%	-8	-12%	-0.6	nt
CCn1c(SCC(=O)N2CCN(C)CC2)nc2c1c(=O)n(C)c(=O)n2C	-4	?	3%	-17	6%	5.9	nt
Cc1ccc(CNC(=O)CO/N=C/c2ccc(C(C)(C)C)cc2)cc1	-17	19%	-11%	8	11%	0.6	-2.3%
Cc1c(C(=O)O)oc2ccc(S(=O)(=O)NCc3ccc(F)cc3)cc12	-2	20%	8%	11	10%	1.1	-2.4%
Cc1ncc(N=Nc2ccccc2Cl)c(-c2ccccc2)n1	-11	11%	-13%	2	3%	6.1	?
Cc1c(NC(=O)CSc2nc3c(cnn3-c3ccccc3)c(=O)[nH]2)c(=O)n(-c2ccccc2)n1C	-10	6%	9%	-1	14%	1.7	-0.9%
COC(=O)[C@@](C)(O)C1(C(=O)SC(C)(C)C)CC1	2	2%	12%	nt	nt	nt	0.4%
CC(Oc1ccc([N+](=O)[O-])cc1)C(=O)NCCCN1CCOCC1 (stereo unspecified)	-5	-19%[15.4 µM]	13%	7	15%	nt	1.3%
CCOC(=O)c1ccc(NC(=O)c2nc[nH]c2C(=O)N(C)CCO)cc1	3	-66%[inhibitor]	nt	nt	nt	nt	0.4%
CC1CC(C)(C)CC2(C1)NC(=O)N(CC(=O)N(Cc1ccccc1)c1ccccc1)C2=O (stereo unspecified)	-7	-3%[15.4 µM]	-12%	-3	nt	nt	-0.1%
C[C@@H]1CCCCCCCCC(=O)OCCN(C(=O)OC(C)(C)C)[C@H](C)CCCCCCCCC(=O)OCCN(C(=O)OC(C)(C)C)[C@H](C)CCCCCCCCC(=O)OCCN1C(=O)OC(C)(C)C	-3	2%	8%	nt	nt	nt	1.8%
C=CCCC(=O)NC1CC(C)(C)Cc2c1cnn2-c1ccc(OC)cc1 (stereo unspecified)	-10	-8%	-12%	8	3%	-4.0	-0.1%
Oc1c(Cl)c(Cl)c2ncccc2c1Cl	1	15%	4%	nt	nt	nt	nt
Cn1cccc1C(=O)NC(=O)CSc1nnc(C2CC2)n1-c1ccccc1	-17	-1%	-5%	-7	-10%	1.4	-0.9%
O=C(CCCN1C(=O)NC2(CCCC2)C1=O)Nc1ccc(Cl)c(S(=O)(=O)N2CCOCC2)c1	-2	3%	3%	-9	nt	nt	-16%
More results
SMILES	D2 potentiator	gsp agonist	gsp antagonist	TRPV1 PAM	Sfp PPTase inh	Menin MLL FP FL	ClpP mod
O=C(NCc1ccccn1)C(=O)NCC1OCCN1S(=O)(=O)c1ccc([N+](=O)[O-])cc1 (stereo unspecified)	?	-85%[inhibitor]	12%	6	-6%	0.7	-1.7%
Cc1ccc(CCNC(=O)C2CCN(S(=O)(=O)c3c(C)nn(C)c3C)CC2)cc1	-4	5%	-1%	13	8%	2.9	0.6%
CCC(Oc1ccccc1)C(=O)Nc1cc(C(F)(F)F)ccc1N1CCOCC1 (stereo unspecified)	-17	-12%	-3%	-20	nt	nt	-3.9%
COc1ccc2oc(-c3ccccc3)c(C(=O)N(C)C)c2c1	1	?	3%	4	7%	-2.2	3.5%
CC(=O)NCCC(=O)N1CCCC(N(C)CCc2ccccc2)C1 (stereo unspecified)	-38	-41%[inhibitor]	4%	5	8%	4.8	1.5%
CN(C)CCCn1c2c(c(SCC(=O)Nc3ccc4c(c3)OCO4)nc1=O)CCC2	-7	-2%[15.4 µM]	12%	0	nt	nt	0.3%
COc1ccc(CN2CCC[C@]3(N[C@H](c4ccc(C)cc4)[C@@H]4C(=O)N(C)C(=O)[C@@H]43)C2=O)cc1	-3	5%	nt	nt	nt	nt	3.0%
CCN(CC(=O)NCc1cccs1)C(=O)c1ccc(C)o1	3	-17%[15.4 µM]	7%	nt	nt	nt	-0.2%
N#Cc1c(-c2ccc(F)cc2)cc(C2CC2)nc1SCC(=O)c1cccs1	5	?	-10%	-11	4%	17	-18%
COc1cc(NC(=O)COC(=O)CC(NC(C)=O)c2ccccc2)cc(OC)c1 (stereo unspecified)	-5	-6%	3%	26	16%	1.4	nt
NC(=S)Nc1cccc(O)c1	4	-7%	0%	12	6%	-4.7	1.6%
O=C1c2cc(Br)ccc2N(Cc2ccc(Br)cc2)S(=O)(=O)C1c1cc(Cl)c(Cl)cc1[N+](=O)[O-] (stereo unspecified)	-15	nt	?	nt	nt	nt	0.7%
O=C(CN1C(=O)C2CCCCC2C1=O)Nc1nccs1 (stereo unspecified)	5	18%[15.4 µM]	-10%	-5	15%	-3.0	nt
